# Source: PubChem BioAssay
# D2 ag – Beta-Arrestin HTS for Positive Allosteric Modulators of the Human D2 Dopamine Receptor: Agonists | D(2) dopamine receptor (Homo sapiens), P14416 | DiscoveRx PathHunter D2 beta-arrestin, luminescence, 90 min; 100% = 57 uM dopamine signal | activation, % (test concentration not listed) | 360,000 compounds, 0.084% hits | AID 624465, 2012; in the data active = activation above about 40%; inconclusive = about 15% to 40%; inactive = below about 15%; also: compound concentration not given in the record; the text of the record calls up to 30% inactive
# Target sequence (P14416 whole entry, looked up): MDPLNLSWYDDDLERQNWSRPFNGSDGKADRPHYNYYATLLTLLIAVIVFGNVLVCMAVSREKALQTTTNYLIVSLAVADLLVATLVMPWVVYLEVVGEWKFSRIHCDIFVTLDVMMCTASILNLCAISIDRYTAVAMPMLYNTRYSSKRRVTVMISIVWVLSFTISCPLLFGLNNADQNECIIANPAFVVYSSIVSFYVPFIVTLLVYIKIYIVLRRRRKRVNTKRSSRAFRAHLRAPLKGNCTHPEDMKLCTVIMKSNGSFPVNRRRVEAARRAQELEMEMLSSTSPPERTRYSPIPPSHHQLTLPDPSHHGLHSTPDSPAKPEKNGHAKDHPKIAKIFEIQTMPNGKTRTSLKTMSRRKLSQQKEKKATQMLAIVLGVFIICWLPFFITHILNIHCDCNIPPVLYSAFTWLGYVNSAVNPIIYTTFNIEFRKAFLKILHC
#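 DiscoveRx PathHunter D2 beta-arrestin cells (2,100/well) attached overnight, then compound-stimulated 90 min at 37 C in HBSS/10 mM HEPES/0.1% Tween-20 buffer; beta-galactosidase complementation read by luminescence after 1 h at ambient temperature. Dopamine 57 uM final (EC100) as control.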
# D2 potentiator – Beta-Arrestin HTS for Positive Allosteric Modulators of the Human D2 Dopamine Receptor: Potentiators. D(2) dopamine receptor (Homo sapiens), P14416. DiscoveRx D2 beta-arrestin cells, luminescence, 90 min; 100% = 57 uM dopamine signal. potentiation, % (no concentration beside the values). 360,000 compounds, 0.23% hits. AID 624464, 2012; active = potentiation of 50% or more; inconclusive = 30% to 50%; inactive = 30% or less;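 also: compound concentration not given in the record; tested on top of an EC20 dose of dopamine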
#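 D2 cells co-treated with compound plus 50 nM dopamine (EC20) for 90 min at 37 deg C to detect potentiation. Beta-arrestin recruitment was read as enzyme-fragment luminescence after 1 h at ambient temperature. Full response was set by 57 uM dopamine.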
# Six1-Eya2 inh – qHTS Assay for Inhibitors of the Six1/Eya2 Interaction; AlphaScreen GST-Six1/His-Eya2 binding, biochemical; hits give low values; control for the full effect not named in the record; activity change, % (concentration not given with the values); 360,000 compounds, 0.56% hits; AID 651725, 2012; in the data active = activity change below about -65%; inconclusive = about -30% to -65%; inactive = above about -30%; also: % is scaled to controls: 0 for no effect and ±100 for the full control effect
#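 Six1/Eya2 binding was read as AlphaScreen signal after compounds were pinned into GST-Six1 plus His-tagged Eya2 (5X stock 250/500 nM) in pH 8.0 Tris/NaCl/TCEP buffer, beads added, then incubated 1 h, 37 C, dark.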
# CtBP-E1A blk – qHTS Assay for Inhibitors of the CtBP/E1A Interaction; 340,000 compounds, 0.49% hits; CtBP / adenovirus E1A interaction (AlphaScreen); AID 651724, 2012; AlphaScreen GST-E1A/His-CtBP binding, 1536-well; hits give low values; control for the full effect not named in the record; activity change, % (concentration not given with the values); in the data active means activity change below about -65%; inconclusive means about -30% to -65%; inactive means above about -30%; also: % is scaled to controls: 0 for no effect and ±100 for the full control effect
#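 Steps: dispense buffer (Tris pH 8.0, NaCl 300 mM, TCEP 1 mM, BSA, Tween 20); add 5X protein mix (GST-E1A, His-CtBP, 125 nM each); pin 23 nL compound; 2 h at 37 °C, dark; add 5X beads (50 ug/mL); 1 h; read.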
# gsp antag – qHTS for Antagonists of gsp, the Etiologic Mutation Responsible for Fibrous Dysplasia/McCune-Albright Syndrome: qHTS; 340,000 compounds, 0.4% hits; gsp-mutant cells, cAMP HTRF, 30 min; control for the full effect not named in the record; Potency, µM (top dose mostly 76.9 µM), without a hit: top-dose activity change, negative = inhibition, actives largely listed as inhibitors; AID 624288, 2012; active = falling curve of any shape with a large fitted effect; inconclusive = falling curve, mostly with a smaller effect; inactive = flat or rising curve; cell line not stated here;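 also: intracellular cAMP measured with PDE inhibitor Ro 20-1724 present during compound exposure; potency is read from the fitted curve at half-maximal effect; % is scaled to controls: 0 for no effect and ±100 for the full control effect; nearly all actives have a fitted effect of over 65% in size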
#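 Cells, 2000/well, grown 16–24 h in DMEM 10% FBS with 0.5 mg/ml G418, then compounds plus […] (300 uM addition stock), 30 min at 37C. cAMP read by HTRF (cAMP-d2 and anti-cAMP antibody-K in lysis buffer) after 30 min RT.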
# gsp ag – qHTS for Agonist of gsp, the Etiologic Mutation Responsible for Fibrous Dysplasia/McCune-Albright Syndrome: qHTS; gsp mutant cells, cAMP HTRF, 30 min; control for the full effect not named in the record; Potency, µM (titrated, usually from 76.9 µM), for inactives: at the top dose activation (cAMP increase), usual class: activators; 340,000 compounds, 0.13% hits; AID 624287, 2012; active = well fitted activation curve with a large enough effect; inconclusive = small, poorly fitted or top-dose-only effect, or another doubt; inactive = no such curve, though single readings can be large or run the other way; cell line not stated here;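 also: phosphodiesterase inhibitor Ro 20-1724 added with compounds to block cAMP breakdown; potency is read from the fitted curve at half-maximal effect; nearly all actives have a fitted effect of over 60% in size; about a fifth of the inactives were tested at one dose only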
#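 Cells stably selected in G418 were plated at 2000/well, grown 16-24 hr, then given compounds in DMSO with the PDE inhibitor […] (300 uM solution added) for 30 min at 37C; cAMP was read by HTRF.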
# Starred values were filed as active, the others as inactive; ? = inconclusive; / = no result given; [ ] = remark or other dose.
SMILES,D2 ag,D2 potentiator,Six1-Eya2 inh,CtBP-E1A blk,gsp antag,gsp ag
COC(=O)C1=C(C)N(C2CCCCC2)C(=O)C1,-3.5,-2.6,1.0,-0.1,8.5%,15.7%
Cc1cc(NC(=O)c2ccc3c(c2)C(=O)N(C(C)(C)C)C3=O)no1,-4.3,-3.6,2.2,-10.6,10.0%,-2.2%
CC(=O)Nc1ccc(NC(=O)C(C)OC(=O)/C(C#N)=C/c2ccc(N(C)C)cc2)cc1 (stereo not drawn),-1.5,-2.3,10.9,-7.5,-7.7%,?
CS(=O)(=O)N1CCC(C(=O)Nc2ccc(Oc3ccccc3)cc2)CC1,2.2,-14.3,-1.4,-1.7,-7.4%,16.4%
Cc1cccc(OCc2nnc(SCc3nc4ccccc4c(=O)[nH]3)o2)c1,-0.1,-24.2,-6.7,0.7,0.2%,-21.8%
Cc1ccc(-n2nc(C)c(Sc3ccccc3[N+](=O)[O-])c2N)cc1,-1.0,-8.7,-22.7,-11.5,-1.5%,1.1%[15.4 µM]
COc1ccc(C(=O)CSc2nccn2C)c(OC)c1,1.3,-10.9,8.0,0.0,-0.7%,-37.1%[inhibitor]
Cc1ccccc1OCC(=O)OCC(=O)c1ccc(OC(=O)c2ccccc2)cc1,-1.6,-15.7,-0.2,15.7,6.7%,0.9%
COc1ccc(NC(=O)CCCOc2ccc(C(C)=O)cc2)cc1S(=O)(=O)N1CCCCC1,-2.3,-7.9,-13.3,-9.4,/,-9.2%
COc1cc(C2C3=C(CCCC3=O)OC3=C2C(=O)CCC3)ccc1OCC(=O)Nc1ccccc1,-1.2,-7.9,3.9,-20.2,-11.7%,-3.4%[15.4 µM]
CC1CN(C(C)C)C(=S)NC1=O (stereo not drawn),1.1,1.1,-3.9,9.6,3.2%,-2.2%
Fc1cccc(COc2ccccc2CNc2ccccc2)c1,-1.3,-10.8,18.0,23.5,-6.2%,12.2%
O=C(CCNC(=O)c1ccc([N+](=O)[O-])cc1)NCC1COc2ccccc2O1 (stereo not drawn),6.8,-6.8,8.4,-2.0,-6.8%,19.0%
CCCCn1c(N)c(N(CCOC)C(=O)c2oc3ccc(Br)cc3c2C)c(=O)[nH]c1=O,-1.8,2.5,0.0,-14.8,3.5%,-5.1%
CC(C)c1ccc(OCCCCN2CCCCC2)cc1,-0.4,-18.2,7.8,-17.5,6.2%,13.7%
COc1ccc(C(=O)Nc2ccc3[nH]ncc3c2)cc1OC,4.1,-3.4,14.1,-18.3,-4.3%,-6.1%[15.4 µM]
Cc1ccc(CSc2nnc(-c3ccncc3)n2CC2CCCO2)cc1 (stereo not drawn),0.3,-10.7,0.7,-11.6,4.1%,-24.9%
COc1cccc(C(CC(=O)O)NS(=O)(=O)c2ccc3c(c2)N(C(C)=O)CC(C)O3)c1 (stereo not drawn),3.2,-11.8,10.6,-0.7,-17.0%,?
CCCCCn1c(N2CCOCC2)nc2c1c(=O)n(CC(N)=O)c(=O)n2C,-2.9,-6.9,-7.3,0.5,-15.1%,25.0%
Cc1cc(SCC(=O)N(C)C2CCCCC2)nc2ccccc12,-2.9,-6.0,1.1,2.7,4.8%,?
OCC(O)/C=N/Nc1nc(N2CCCCC2)nc(N2CCCCC2)n1 (stereo not drawn),-3.5,-4.8,2.0,-19.1,8.3%,-14.8%
COc1cc(C2/C(=C(\O)c3ccc4c(c3)CC(C)O4)C(=O)C(=O)N2CC2CCCO2)cc(OC)c1OC (stereo not drawn),-0.6,13.3,6.2,-0.4,16.4%,-8.8%
COc1ccc(NC(=O)c2c(NC(=O)CNCC(C)C)sc3c2CCC3)c(OC)c1,5.0,-8.8,-2.2,-0.6,4.4%,4.2%[15.4 µM]
COc1ccc([C@H]2[C@H](C(=O)C(C)(C)C)N3N=Cc4ccccc4C3C23C(=O)OC(C)(C)OC3=O)cc1 (stereo partly drawn),2.8,26.0,-2.0,-8.0,-27.7%,-45.1%[inhibitor]
COC(=O)Cn1ccc(N(C)C)c(C#N)c1=O,0.2,-9.8,6.4,12.3,9.7%,-41.7%[inhibitor]
CC[C@@]12C(=O)N(c3cccc(Br)c3)C(=O)N1[C@H](c1ccc(Cl)cc1)[C@@H]1C(=O)N(C3CCCCC3)C(=O)[C@@H]12,0.2,-3.3,-4.6,0.5,-13.5%,/
COCCN1C[C@@H](CO)O[C@@H](n2cnc3c(NCC(C)C)ncnc32)C1,-4.3,-8.6,0.5,1.4,/,/
COc1ccc(N2CCN(C(=O)CCc3ccccc3OC)CC2)cc1,-2.8,-3.1,-12.0,/,-3.1%,-8.4%
O=C(Nc1cc(Cl)cc(Cl)c1)c1cccnc1,2.9,-2.4,3.7,3.5,2.6%,-22.0%
CCOC(=O)c1sc2ncnc(OC)c2c1C,-2.5,-18.0,-1.4,1.1,28.8%,-29.1%

# Structures listed so far that have a cyano group:
SMILES,D2 ag,D2 potentiator,Six1-Eya2 inh,CtBP-E1A blk,gsp antag,gsp ag
CC(=O)Nc1ccc(NC(=O)C(C)OC(=O)/C(C#N)=C/c2ccc(N(C)C)cc2)cc1 (stereo not drawn),-1.5,-2.3,10.9,-7.5,-7.7%,?
COC(=O)Cn1ccc(N(C)C)c(C#N)c1=O,0.2,-9.8,6.4,12.3,9.7%,-41.7%[inhibitor]

# The listing continues.
SMILES,D2 ag,D2 potentiator,Six1-Eya2 inh,CtBP-E1A blk,gsp antag,gsp ag
CCOC(=O)c1sc(SC)nc1N,-1.0,-4.0,0.4,0.6,7.8%,-22.1%
CCCCn1c(CN2CCN(C)CC2)nc2ccccc21,-4.0,-7.7,-8.6,-8.8,7.8%,29.9%
C[C@@]12CCC=C[C@H]1[C@H](c1ccc3ccccc3c1/C=C/c1ccccc1)N(Cc1ccccc1)C2=O,-3.2,0.8,-6.4,-17.9,7.5%,/
Cc1nc2[nH]c(=S)[nH]c(=O)c2nc1C,-1.5,-6.2,-12.2,-1.9,3.9%,11.7%[15.4 µM]
CCc1ccc(NC(=O)CNC(=O)c2nn(-c3ccc(OC)cc3)c(=O)c3ccccc23)cc1,-6.7,-35.5,-19.9,-1.0,-0.1%,1.8%[15.4 µM]
COc1cc(C)c(Cl)cc1S(=O)(=O)N1CCSC1,-1.1,-8.7,-11.2,3.2,-1.7%,7.4%[15.4 µM]
CCCOc1ccc(Oc2ccc(S(=O)(=O)N3CCN(C)CC3)cn2)cc1,-1.9,-10.6,-2.1,5.9,9.7%,-31.7%[inhibitor]
CCCNC(=S)N1CCN(CC)CC1,-1.5,-12.6,14.1,6.2,5.2%,0.9%
COc1ccccc1-n1c(C)c(C(=O)O)c2cc(OC)c3ccccc3c21,5.1,-8.0,-25.2,/,-6.2%,-26.9%
O=C(CN1C(=O)/C(=C/c2ccccc2)SC1=S)Nc1ncc(Cc2ccccc2)s1,-5.1,-2.8,?,-22.4,3.5%,14.7%[15.4 µM]
Cn1nccc1C(=O)N1CCC(Cc2ccccc2)CC1,1.7,-7.9,19.0,10.0,8.2%,-15.8%
CC1=NN(c2ccccc2)C(=O)/C1=C\c1cc(C)n(-c2cccnc2)c1C,4.3,20.1,-3.9,3.7,-12.7%,1.4%[15.4 µM]
COC(=O)c1sccc1NC(=O)Nc1ccccc1OC,-4.1,-27.6,-15.7,-22.2,-6.3%,-19.3%
Cc1ccc(S(=O)(=O)N2CCCCC2)cc1NC(=O)CSc1nc(N)cc(=O)[nH]1,-4.1,-9.4,1.4,/,7.1%,13.3%
COc1ccccc1CNC(=O)CN(Cc1ccc(Cl)cc1)S(C)(=O)=O,-2.6,-9.3,18.1,22.6,2.6%,-11.6%[15.4 µM]
CSCCC(NC(=O)c1ccc(Cl)cc1Cl)C(=O)NNC(=O)c1ccncc1 (stereo not drawn),3.3,-4.5,0.8,-3.6,8.4%,1.6%
COc1ccc(CNCCC2(Cc3ccccc3)CC(C)N(C)CC2C)cc1OC (stereo not drawn),-1.1,-4.3,5.3,-2.0,2.0%,3.3%
CCc1cc(C(c2ccc(F)cc2)N2CCOCC2)c(NC(=O)c2ccccc2)s1 (stereo not drawn),-4.9,0.1,5.1,-1.0,-5.6%,6.7%
Cc1cc(C(=O)N2CCN(c3ccccc3)CC2)no1,-0.7,-11.9,-4.0,0.7,6.0%,1.3%
O=C(CSCc1ccc(Cl)cc1)Nc1ccc2c(c1)OCO2,-2.4,-23.0,-8.2,-4.7,1.1%,?
O=c1c2cc(F)ccc2sn1-c1ccccc1Cl,-8.0,-20.3,-6.5,-2.1,/,-43.9%[inhibitor]
CCCCC1(CC)SCC(=O)NC1=O (stereo not drawn),-1.3,-4.0,-4.3,9.3,9.8%,-112.8%[inhibitor]
O=C(C1CCCN(Cc2ccccc2Cl)C1)N1CCCCC1 (stereo not drawn),-0.4,-3.6,-6.3,/,9.9%,16.7%
Cc1cccc(-n2nc([N+](=O)[O-])c(N3CCN(C(=O)c4ccco4)CC3)[n+]2[O-])c1,4.0,8.2,0.9,1.7,-0.4%,-5.5%
Cc1[nH]c(C)c(S(=O)(=O)N2CCN(c3ccc(Cl)cc3)CC2)c1C(=O)N1CCCC1,1.2,-6.0,-4.1,/,-0.7%,-16.0%
NC(=O)N/N=C/c1cc(Br)ccc1OCC(=O)NCc1ccccc1,-4.1,-6.2,?,-9.9,10.5%,14.1%
O=C1CCC(C(=O)OCc2cc(=O)oc3ccc4ccccc4c23)=NN1,-8.1,-5.5,-0.1,-4.1,3.4%,-14.3%
Cc1ccc(S(=O)(=O)NCCNc2ccc([N+](=O)[O-])cc2)cc1,-1.3,-8.4,-6.7,-8.3,-12.9%,22.1%
Cn1c(CN2CCOCC2)nnc1SCc1ccccc1,1.3,2.3,4.4,9.4,0.6%,5.4%
Cc1ccsc1/C=N/NC(=O)c1cccs1,-1.3,-10.7,-17.4,1.4,-2.6%,6.6%[15.4 µM]
COc1ccc(NC(=O)C(c2ccc(Cl)cc2)C(C)C)cn1 (stereo not drawn),-7.2,-16.3,6.5,4.4,-6.1%,-23.6%
Cn1cc(CNC(=O)C2CCC(=O)N(Cc3ccc(Cl)cc3)C2)cn1 (stereo not drawn),-3.1,-5.9,0.5,2.8,7.6%,-19.4%
Cc1ccc2c(c1)C(=O)CC1(CCCC1)O2,-1.4,-5.3,-0.8,/,13.5%,21.6%
CCn1cc(-c2cc(C(=O)O)on2)c(C)n1,2.1,1.8,8.9,0.6,2.5%,-17.7%

# Compounds as they come; any-hit rate near 1.4%.
